# TDP1 block – inhibitors of human tyrosyl-DNA phosphodiesterase TDP1; recombinant TDP1, AlphaScreen DNA substrate cleavage; hit rate 0.28% among 350,000; Q9NUW8; Potency, µM (titrated, usually from 130 µM), for inactives: at the highest dose activity change, negative = inhibition, usual class: inhibitors; note: nearly all actives have a fitted effect of over 40% in size
# Target sequence (Q9NUW8 whole entry, looked up): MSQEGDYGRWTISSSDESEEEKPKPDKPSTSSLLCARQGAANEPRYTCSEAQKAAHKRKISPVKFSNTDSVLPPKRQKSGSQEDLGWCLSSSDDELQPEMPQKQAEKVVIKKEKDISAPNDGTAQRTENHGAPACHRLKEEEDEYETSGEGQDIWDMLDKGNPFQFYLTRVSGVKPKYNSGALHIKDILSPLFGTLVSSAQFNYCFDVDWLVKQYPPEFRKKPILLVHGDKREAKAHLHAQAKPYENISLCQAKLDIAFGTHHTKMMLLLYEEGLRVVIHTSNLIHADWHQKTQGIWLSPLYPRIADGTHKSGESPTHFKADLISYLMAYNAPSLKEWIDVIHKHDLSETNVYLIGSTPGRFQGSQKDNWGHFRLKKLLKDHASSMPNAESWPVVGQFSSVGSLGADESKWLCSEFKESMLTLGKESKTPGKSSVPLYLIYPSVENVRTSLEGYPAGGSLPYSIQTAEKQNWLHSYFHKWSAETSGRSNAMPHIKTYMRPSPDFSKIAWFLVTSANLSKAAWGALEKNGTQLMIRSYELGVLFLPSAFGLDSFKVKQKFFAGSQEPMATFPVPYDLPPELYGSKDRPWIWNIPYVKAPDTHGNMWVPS
#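 Compounds were preincubated with Tdp1 (1 nM final) for 15 min at room temperature before substrate (15 nM final) started a 5 min reaction; beads (10 ug/ml final) were then added for 10 min before AlphaScreen detection.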
# N370S GC mod – inhibits or activates N370S mutant glucocerebrosidase; Potency, µM (series often up to 59.4 µM), for the others: at the highest dose activity change, negative = inhibition, most hits filed as inhibitors; hit rate 0.092% among 330,000; AID 2101; N370S GC spleen homogenate, 4MU-glucoside fluorescence;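 note: 0% = full enzyme activity and -100% = no enzyme basal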
# * = called active by the depositor; ? = inconclusive; / = not tested or not shown; & = joins results of further samples; [ ] = remark or other dose. Calls come from the whole dose curve; as a rule, active = well fitted curve in the direction sought with a large enough effect; inconclusive = small, poorly fitted or top-dose-only effect, or another doubt; inactive = no such curve, though single readings can be large; an effect the other way counts as inactive or inconclusive. Unless noted, % is set by controls: 0 for no effect and ±100 for the full control effect; potency is the fitted concentration of half-maximal effect.
TDP1 block	N370S GC mod	Molecule
2%	-22%	CCOc1ccc(NC(=O)CC2C(=O)N(C)C(=S)N2CCCc2ccccc2)cc1 (centres undefined)
/	-3%	CCOc1cc(NC(=O)c2ccco2)c(OCC)cc1NC(=O)c1ccco1
5%	4%	O=c1c2ccc([N+](=O)[O-])cc2ncn1CCOc1ccccc1
8%	-7%	Cc1[nH]nc(-c2ccc(O)c(C)c2O)c1Oc1ccccc1
-6%	6%	O=C(c1ccco1)N1CCN(Cc2cn[nH]c2-c2ccc(F)cc2F)CC1
4%	-22%	COc1ccc(C2C(C(=O)c3ccco3)=C(O)C(=O)N2CCc2ccccc2)cc1OC (centres undefined)
6%	0%	Cc1nc(NC(=O)CCN2C(=O)C3CC=CCC3C2=O)sc1C (centres undefined)
0%	-17%	NS(=O)(=O)c1ccc(CNS(=O)(=O)c2ccc3c(c2)OCCO3)cc1
/	-19%	CC(=O)N1CCN(S(=O)(=O)c2cccc(C(=O)NNC(=O)Cn3ccc(C(F)(F)F)n3)c2)CC1
0%	-3%	O=C(CC1=NC2(CCCC2)Cc2ccccc21)N1CCOCC1
4%	2%	CCN(C(=O)CCc1nnc2ccc(NCc3ccco3)nn12)c1ccccc1
-1%[56.1 µM]	6%	CCn1c(SCC(=O)Nc2cc(C)on2)nnc1-c1ccccc1
8%	-10%	Cc1cc(C)c2c(CN3CCN(C/C=C/c4ccccc4)CC3)cc(=O)oc2c1
-2%	10%	CCCCCC(=O)NC(=S)NC1C2CC3CC(C2)CC1C3 (centres undefined)
5%&5%	2%	Cn1c(CN2CCCCC2)nc2cc(NC(=O)c3cccc(Br)c3)ccc21
7%	-8%	Cc1nn(-c2ccccc2)c(C)c1C(=O)OCC(=O)NC(=O)NC1CCCC1
/	-22%	CN1CCN(S(=O)(=O)c2ccc(NC(=O)c3ccccc3F)cc2)CC1
/	3%	CO/N=C(\CCC(=O)O)c1cccs1
2%	-6%	Cc1ccc(NC(=O)CCOc2ccccc2)cc1
-3%	4%	CCC(C(=O)Nc1cccc(C(F)(F)F)c1)c1ccccc1 (centres undefined)

# Three records drawn at random from those above, as already listed:
TDP1 block	N370S GC mod	Molecule
/	3%	CO/N=C(\CCC(=O)O)c1cccs1
-2%	10%	CCCCCC(=O)NC(=S)NC1C2CC3CC(C2)CC1C3 (centres undefined)
8%	-10%	Cc1cc(C)c2c(CN3CCN(C/C=C/c4ccccc4)CC3)cc(=O)oc2c1

# Next part
TDP1 block	N370S GC mod	Molecule
5%	-19%	COc1cc(/C=N/NC(=O)c2cccc([N+](=O)[O-])c2)ccc1OC(=O)c1ccco1
7%	6%	O=C(CC(c1ccccc1)c1cc(Br)ccc1O)NCCN1CCOCC1 (centres undefined)
3%	-1%	OCCC1CN(Cc2cccc(-n3cccn3)c2)CCN1Cc1ccccc1 (centres undefined)
6%	7%	COc1ccc(N(CC(=O)Nc2c(C)cccc2C)S(=O)(=O)c2ccccc2[N+](=O)[O-])c(OC)c1
/	-4%	CC(=O)NCCc1ccc(O)cc1
-4%	-5%	O=S1OC(c2ccccc2)c2cc(Cl)ccc21 (centres undefined)
1%	-11%	Cc1cc(NC(=O)CSc2nc(-c3cccnc3)ccc2C#N)no1
-11%	-6%	COc1ccc(C)cc1NC(=O)CCCNC(=O)Cn1cnc2sc(C)c(C)c2c1=O
-6%	-1%	O=C(c1ccc(=O)oc1)N1CCN(c2ccc(F)cc2)CC1
0%	2%	CCOc1ccc(N(C(=O)CNS(=O)(=O)c2ccccc2)C(CC)C(=O)NCc2ccco2)cc1 (centres undefined)

# The final 7 records of the section before open the next one.
TDP1 block	N370S GC mod	Molecule
6%	7%	COc1ccc(N(CC(=O)Nc2c(C)cccc2C)S(=O)(=O)c2ccccc2[N+](=O)[O-])c(OC)c1
/	-4%	CC(=O)NCCc1ccc(O)cc1
-4%	-5%	O=S1OC(c2ccccc2)c2cc(Cl)ccc21 (centres undefined)
1%	-11%	Cc1cc(NC(=O)CSc2nc(-c3cccnc3)ccc2C#N)no1
-11%	-6%	COc1ccc(C)cc1NC(=O)CCCNC(=O)Cn1cnc2sc(C)c(C)c2c1=O
-6%	-1%	O=C(c1ccc(=O)oc1)N1CCN(c2ccc(F)cc2)CC1
0%	2%	CCOc1ccc(N(C(=O)CNS(=O)(=O)c2ccccc2)C(CC)C(=O)NCc2ccco2)cc1 (centres undefined)
13%[0.0935 µM]	-5%	COc1ccc(N(CC(=O)NCc2ccco2)S(=O)(=O)c2ccc(C)cc2)cc1OC
5%	-2%	Cn1cc(Cl)c(C(=O)NC2CCCC2)n1
1%	0%	Nn1c(COc2ccccc2)nnc1SCC(=O)O
2%	8%	COc1cc(C)ccc1NC(=O)Cc1csc(NC(=O)Nc2ccccc2OC)n1
7%	1%	COc1ccccc1C(=O)NNC(=S)Nc1ccccc1
2%	0%	Cc1ccc(NC(=S)c2ccncc2)cc1
2%	-1%	COc1ccc(C2NC(=S)NC(C)=C2C(=O)Nc2ccccn2)cc1 (centres undefined)
-1%	9%	Cc1ccc(C2SCC(=O)N2Cc2cn3ccsc3n2)o1 (centres undefined)
4%	-1%	COc1ccccc1Cc1nc(-c2cccnc2)no1
-4%	?	CC(C)(C)NC(=O)CON=C1c2ccccc2-c2ccccc21
-6%	6%	CCOC(=O)C1(Cc2ccc(Cl)cc2)CCN(CCCn2cccn2)CC1
5%	16%	COc1ccc(OCc2nc3ccccc3n2C(C)C)cc1
4%	-6%	O=C(CC(c1ccc(F)cc1)c1ccco1)N1CCCC1 (centres undefined)
-3%	1%	Cc1ccc(S(=O)(=O)CCC(=O)OCn2nnc3ccccc3c2=O)cc1
11%	11%	CCC1=NN2C(=N)/C(=C\c3cccn3-c3cccc(Cl)c3)C(=O)N=C2S1
/	-6%	Cc1ccc(C(=O)NNC(=O)c2nn(-c3ccc(F)cc3)ccc2=O)cc1
8%	/	CCN(CC)c1ccc(NC(=O)Cn2c(C)c3cnn(-c4ccccc4)c(=O)c3c2C)c(C)c1
-2%	-2%	COC(CNC(=O)CNC(=S)N(Cc1ccccc1)Cc1cccs1)OC
0%	1%	CN(C)S(=O)(=O)c1ccc(C(=O)Nc2cccc(C(=O)O)c2)cc1
-3%	?	CC(=O)N1N=C(c2ccccc2)OC1c1cccnc1 (centres undefined)
13%	8%	Cc1ccc(S(=O)(=O)c2nnn3c2nc(N2CCOCC2)c2ccccc23)cc1C
8%	?	O=C(COc1c(Cl)cccc1Cl)Nc1ccccc1N1CCCC1
/	-1%	CCN(CC(=O)Nc1c(F)cccc1F)C(=O)CCNC(=O)c1ccc([N+](=O)[O-])cc1
5%	11%	Cc1csc(NC(=O)c2cc(-c3ccco3)nc3ccccc23)n1
1%&1%	/	Cc1ccc(NS(=O)(=O)c2ccc3c(c2)CCC(=O)N3)cc1
-7%	7%	O=c1c2ccccc2nc(SCc2cccc(F)c2)n1Cc1ccco1
7%[56.1 µM]	9%	CCOC(=O)C1=NN(c2cccc(Cl)c2)C2=NC(C)=C(C(=O)OC)C(c3cccs3)N12 (centres undefined)
5%	-14%	COc1cccc(C(=O)/C=C/Nc2ccc(S(=O)(=O)Nc3ncccn3)cc2)c1
4%	-4%	CC(C)CN(C(=O)COC(=O)CSc1ccccc1)c1c(N)n(Cc2ccccc2)c(=O)[nH]c1=O
0%	-9%	COc1cc(C(=O)N2CCN(c3ccc(C)cc3C)CC2)cc(OC)c1OC
/	-15%	O=[N+]([O-])c1ccc(/C=N/N2CCN(Cc3ccccc3)CC2)cc1
/	2%	CCCc1cc(=O)oc2cc(OCC(=O)NC(Cc3ccc(Cl)cc3)C(=O)O)ccc12 (centres undefined)
/	0%	COc1ccc(N/C=C\C(=O)c2ccc3ccccc3c2)cc1
/	-2%	Cc1ccc(C)c(OC(=O)c2cccnc2)c1
7%	-8%	Cc1ccc(/C=N/n2c(-c3ccncc3)n[nH]c2=S)o1
1%	/	COc1ccc(NC(=O)CN(C)C(=O)C2CC(=O)N(c3cccc4ccccc34)C2)cc1 (centres undefined)
0%	/	CCOC(=O)N1CCC(NC(=O)c2cnn(-c3ccccc3)c2C2CCN(C(=O)OC(C)(C)C)CC2)CC1
2%	0%	Cc1cc(SCC(=O)Nc2c(C)n(C)n(-c3ccccc3)c2=O)nc2ccccc12
/	-6%	Cn1c(=O)[nH]c(=O)c2c1nc(N1CCN(CCO)CC1)n2Cc1ccccc1Cl
-2%	16%	CCCOc1ccc(C(=O)Nc2ccc(Cl)cn2)cc1

# Copied from the entries so far, four compounds:
TDP1 block	N370S GC mod	Molecule
0%	/	CCOC(=O)N1CCC(NC(=O)c2cnn(-c3ccccc3)c2C2CCN(C(=O)OC(C)(C)C)CC2)CC1
2%	0%	Cc1cc(SCC(=O)Nc2c(C)n(C)n(-c3ccccc3)c2=O)nc2ccccc12
/	-6%	Cn1c(=O)[nH]c(=O)c2c1nc(N1CCN(CCO)CC1)n2Cc1ccccc1Cl
-2%	16%	CCCOc1ccc(C(=O)Nc2ccc(Cl)cn2)cc1

# The listing picks up with the four entries that preceded the break.
TDP1 block	N370S GC mod	Molecule
0%	/	CCOC(=O)N1CCC(NC(=O)c2cnn(-c3ccccc3)c2C2CCN(C(=O)OC(C)(C)C)CC2)CC1
2%	0%	Cc1cc(SCC(=O)Nc2c(C)n(C)n(-c3ccccc3)c2=O)nc2ccccc12
/	-6%	Cn1c(=O)[nH]c(=O)c2c1nc(N1CCN(CCO)CC1)n2Cc1ccccc1Cl
-2%	16%	CCCOc1ccc(C(=O)Nc2ccc(Cl)cn2)cc1
1%	3%[12.8 µM]	CCCOC(=O)c1ccc(NC(=O)COC)cc1
/	1%	CCN1CCN(c2ncnc3sc4c(c23)CCC(C)C4)CC1 (centres undefined)
6%	14%	O=C(Nc1cc(N2CCOCC2)ncn1)c1ccccc1
-1%	4%	CCN(CC)C(=O)COc1ccc2oc(C)c(C(=O)OC)c2c1
5%	2%	Cc1ccc(CNc2nc3ccccc3n3nnnc23)cc1
0%	15%	CCCn1nnc(NC(=O)c2ccc(OCC)c(Cl)c2)n1
0%	-5%	Cc1cc(-n2c(SCCC#N)nnc2-c2cccnc2)ccc1Cl
-2%[12.3 µM]	4%	COc1cc(NC(=O)c2ccc(C)cc2)ccc1NC(=O)c1cc2ccccc2o1
-2%	1%	COc1cc(C(=O)OCCc2c(C)nc3nc[nH]n3c2=O)cc(OC)c1OC
2%	2%	Cc1nn(-c2ccc(C(=O)OC(C)C)cc2)c(C)c1[N+](=O)[O-]
6%	-12%	C=CCNC(=O)c1ccc(C(=O)c2ccccc2)cc1
-2%	4%	CCC(C)NC(=O)c1cn(CC)c2ccc(S(=O)(=O)N3CCCCCC3)cc2c1=O (centres undefined)
-4%	8%	N/C(=N\OC(=O)c1ccc(F)cc1)c1ccccc1
0%	2%	O=S(=O)(c1ccc(S(=O)(=O)n2cnc3ccccc32)cc1)N1CCCCCC1
7%	-2%	CCc1ccc(OCC(=O)NNC(=O)c2nn(CC)c(=O)c3ccccc23)cc1
3%	9%	COc1ccc2c(C)cc(=O)oc2c1C
4%	-7%	O=S(=O)(NCC1CCCO1)c1ccc(-c2ccc(S(=O)(=O)NCC3CCCO3)cc2)cc1 (centres undefined)
-9%	-3%	Cc1cc(Br)ccc1NC(=O)CSc1nnc(CN2CCOCC2)n1C
6%	-1%	O=C(NCc1cccs1)C1CCN(S(=O)(=O)c2ccccc2F)CC1
2%	-5%	O=C(NC1CCCC1)C(c1ccncc1)N(C(=O)c1ccco1)c1ccc(F)c(Cl)c1 (centres undefined)
-3%	-1%	O=C(Nc1ccc(F)cc1)c1cc(S(=O)(=O)Nc2ccc(F)cc2)cs1

# From PubChem

# These rows are one share of the data, and most or all hits are left out here.
